# Source: PubChem
# FGF22 binding = binders of human FGF22 protein, primary screen, FGF22 synaptogenesis inhibitor project, biophysical, thermal shift, single point; actives 1.5% (n = 340,000); calls only at 9.99 µM; AID 651658, 2012; Fibroblast growth factor 22 (Homo sapiens), Q9HCT0; recombinant FGF22 thermal shift, SYPRO orange fluorescence; percent of sucrose octasulfate shift, DMSO zero;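 active means melting point raised past a set limit in the mean and every replicate; inconclusive means no clear call; three in four hits are not shown here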
# Target sequence (Q9HCT0 whole entry, looked up): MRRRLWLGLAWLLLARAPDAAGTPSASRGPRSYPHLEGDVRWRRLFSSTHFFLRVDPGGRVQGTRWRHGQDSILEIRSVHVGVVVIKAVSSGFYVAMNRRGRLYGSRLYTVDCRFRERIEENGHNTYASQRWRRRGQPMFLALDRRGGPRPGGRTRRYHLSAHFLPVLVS
# UCH37 inh = inhibitors of human UCH37 deubiquitinase, primary screen, biochemical, Ub-AMC cleavage, fluorescence; Ubiquitin carboxyl-terminal hydrolase isozyme L5 (Homo sapiens), Q9Y5K5; purified proteasome/UCH37; inhibition, % (no concentration beside the values); actives 0.33% (n = 330,000); AID 588478, 2011;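 active means mean of two replicates above 20%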;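 further: 0% = compound-free wells with enzyme and 100% = wells lacking proteasome; stock transfer was 100 nL into about 20 µL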
# Target sequence (Q9Y5K5 whole entry, looked up): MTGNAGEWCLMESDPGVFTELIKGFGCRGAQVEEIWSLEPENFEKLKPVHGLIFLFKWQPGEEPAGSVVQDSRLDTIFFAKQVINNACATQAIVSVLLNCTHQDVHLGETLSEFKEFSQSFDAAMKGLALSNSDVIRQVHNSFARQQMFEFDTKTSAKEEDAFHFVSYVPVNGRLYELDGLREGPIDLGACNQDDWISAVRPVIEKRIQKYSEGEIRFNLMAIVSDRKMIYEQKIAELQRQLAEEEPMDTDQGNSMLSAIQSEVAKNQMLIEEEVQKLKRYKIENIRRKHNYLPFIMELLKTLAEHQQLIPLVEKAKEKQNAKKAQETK
#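 Test system – human UCH37 enzyme supplied as purified proteasome complex · Incubation – 30 min preincubation with enzyme, 25 min cleavage at room temperature · Detection – AMC fluorescence from Ub-AMC cleavage, excitation 355 nm, emission 460 nm · Benchmarks – no-proteasome wells (full inhibition) and compound-free wells (no inhibition)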
# MLL AF4-AF9 inh = inhibitors of AF4 peptide binding to AF9, primary screen, biochemical, AlphaScreen, biotin-AF4 peptide, FLAG-AF9, single point; Protein AF-9 (Homo sapiens), P42568; inhibition, % at 10 µM; actives 0.47% (n = 350,000);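 active means every replicate reaching a set inhibition limit, whatever the replicate mean, cut at about 25% in these data; inconclusive means mean inhibition reaches that limit but some replicates miss it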;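 further: 0% = plate neutral control median and 100% = total signal loss; the record names both 10 and 1 µM as test concentration; the first replicate is given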
# Target sequence (P42568 whole entry, looked up): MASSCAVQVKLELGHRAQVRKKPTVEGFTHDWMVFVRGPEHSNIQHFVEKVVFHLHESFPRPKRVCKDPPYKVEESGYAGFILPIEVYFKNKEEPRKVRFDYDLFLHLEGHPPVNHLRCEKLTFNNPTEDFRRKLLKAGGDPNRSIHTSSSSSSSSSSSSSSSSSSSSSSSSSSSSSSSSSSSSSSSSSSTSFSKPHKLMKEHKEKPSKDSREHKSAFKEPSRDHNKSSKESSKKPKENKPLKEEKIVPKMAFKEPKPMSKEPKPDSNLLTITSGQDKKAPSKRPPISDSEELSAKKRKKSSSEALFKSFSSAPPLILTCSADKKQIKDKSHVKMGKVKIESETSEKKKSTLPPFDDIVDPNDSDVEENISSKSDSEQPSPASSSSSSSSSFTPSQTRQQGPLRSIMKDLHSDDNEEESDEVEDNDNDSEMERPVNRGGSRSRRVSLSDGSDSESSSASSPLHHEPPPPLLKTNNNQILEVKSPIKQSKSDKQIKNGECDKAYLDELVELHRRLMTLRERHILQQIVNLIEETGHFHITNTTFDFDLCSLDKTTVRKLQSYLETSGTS
# T cruzi repl = inhibitors of intracellular T. cruzi growth, primary screen, luminescence, NIH3T3 host cells. T. cruzi beta-gal in NIH3T3, 90 h. inhibition, % (concentration not given with the values). actives 1.4% (n = 300,000). AID 1885, 2009;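 active means mean inhibition across valid replicates above about 55%, limit read from the data; inconclusive means mean below that limit but half or more replicates reach it; inactive means mean below it, under half of replicates reach it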;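 further: signal also drops with host cell toxicity which is not excluded here; 0% = plate median of DMSO wells and 100% = zero luminescence signal; higher percent means less beta-gal luminescence so fewer parasites; stock transfer was 50 nL into about 50 µL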
# Beta apoptosis = inhibitors of cytokine-induced beta cell apoptosis, primary screen, luminescence; actives 0.8% (n = 300,000); AID 435005, 2010; protection from apoptosis, % (no concentration beside the values); INS-1E cytokine-induced death, ATP luminescence, 48 h; percent of positive-control rescue, neutral wells zero;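 active means all replicates at 75% or more, or half of them and the mean; inconclusive means half reach 75% but not the mean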;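 further: 0% = cytokine-treated negative control wells and 100% = positive control rescue; higher means more ATP so stronger rescue from cytokine killing; wells of about 40 µL received 100 nL stock; the first replicate is given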
# A1 inh = caspase 3/7 activation in MEF A1-2A-BIM cells, primary screen, A1 inhibitor project, cell-based, luminescence, HTS; Caspase-Glo 3/7 luminescence, 3 h; percent of clofoctol response, vehicle zero; caspase activation, % (no concentration beside the values); actives 0.066% (n = 330,000); AID 2462, 2010;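 active means over half of replicate activation scores above 10%, or exactly half above 10 with the replicate mean above 10; inconclusive means replicate mean below 10 yet half the replicates above 10; inactive means over half of replicates below 10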;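 further: wells of about 30 µL received 50 nL stock; many hits fall short of the cut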
# rRNA inh HTS = reduced GFP signal of wild-type E. coli, primary screen, bacterial rRNA inhibitor project, GFP/RFP fluorescence, OD600, single point. GFP signal change (wild-type ribosome), % (concentration not given with the values). actives 1.6% (n = 350,000). AID 720706, 2013. E. coli WT GFP vs humanized-ribosome RFP mutants, 24 h; stronger effect = lower value; DMSO median 0, no signal -100;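 active means significant combined selectivity score with lowered wild-type GFP, culture density cut under 30%, mutant RFP and density less affected; inactive means any of these conditions unmet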; further: one replicate is shown; some compounds called inactive have numbers as strong as hits
# E coli growth = E. coli growth inhibition, primary screen, OD600; Escherichia coli growth, 23 h; stronger effect = lower value; OD600 absorbance (concentration not given with the values); actives 0.21% (n = 330,000); AID 1053175, 2014;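 active means OD600 absorbance below the run mean of sample wells minus 3.6 SD, in any replicate, cut at about 0.56 in these data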;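 further: stock transfer was 300 nL into about 60 µL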
# rRNA inh HTS OD600 = also measured in rRNA inh HTS; calls as there; OD600 change, %; measured here: OD600 growth;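 optical density of the mix in the first replicate; 0 = DMSO median and -100 = no signal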
# rRNA inh HTS RFP = further read-out of rRNA inh HTS, marked with its call; RFP signal change, %; measured here: RFP humanized mutant strains;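 first replicate; 0 = DMSO median and -100 = no signal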
# * marks the source's active call; other numbers are inactive results; i = inactive; u = inconclusive; x = not tested or not shown; & = joins results of further samples. Some of the compounds tested; rates above refer to the full screens.
No.	smiles	Beta apoptosis	T cruzi repl	MLL AF4-AF9 inh	E coli growth	FGF22 binding	rRNA inh HTS RFP	A1 inh	rRNA inh HTS	rRNA inh HTS OD600	UCH37 inh
1	CCOCC(=O)Nc1nnc(COC)s1	x	-11	x	0.71	x	x	-0.2	x	x	1.9
2	O=C(/C=C/c1ccc(Cl)c(Cl)c1)Nc1cccnc1	x	13	0.9	0.72	i	4.8	-2.6	4	4	-1.6
3	O=C(COC(=O)CSc1ccc2ccccc2c1)NC1CCCC1	0	-8	-10	0.62	i	1.8	-0.1	-5	2	4.4
4	COC(=O)[C@@]12OC[C@]34[C@H]([C@@H](O)[C@@H]1O)[C@@]1(C)C(=O)C(O[C@@H]5OC(CO)[C@@H](O)[C@@H](O)[C@@H]5O)=C[C@@H](C)[C@@H]1C[C@H]3OC(=O)[C@H](OC(=O)/C=C(\C)C(C)(C)OC(C)=O)[C@@H]24 (some centres undefined)	3	x	x	0.66	x	x	1.1	x	x	-15
5	CCN(CC)CCCC(C)NC(=O)c1c(NC(=O)c2ccccc2)sc2c1CCCC2 (centres undefined)	x	18	8.7	0.68	i	4.5	0.8	-23	-18	-0.2
6	CCOC(=O)c1ccc(Nc2ncnc3ccc(C)cc23)cc1	10	21	x	0.81	x	x	0.4	x	x	-48
7	Cc1ccc(S(=O)(=O)NNC(=S)Nc2ccc(Cl)cc2)cc1	-12	-9	-0.1	0.7	i	1.1*	1.2	-28*	15*	-0.2
8	COc1ccccc1C(=O)Nc1nnc(SCC(=O)NC2CCCC2)s1	4	1	x	0.7	x	x	0.7	x	x	-6.1
9	S=C(NCc1cccs1)Nc1cccc(Cl)c1	-5	8	-5.4	0.6	i	-32	0.0	-57	-79	4.4
10	CCOC(=O)N1CCN(C(=O)c2cc(-c3ccc(F)cc3)[nH]c2C)CC1	-3	-14	x	0.69	x	x	-1.6	x	x	0.1
11	COc1ccc(C(CNC(=O)C2CC(=O)N(Cc3ccccc3)C2)N2CCCC2)cc1 (centres undefined)	5	x	4.0	0.72	i	-0.8	-0.5	9	14	1.9
12	CCOc1ccc(CCNC(=O)COC(=O)COc2ccc(Br)cc2)cc1OCC	-1	-9	-1.1	0.69	i	1.3	-0.9	10	10	0.3
13	CCS(=O)(=O)N1CCCC(C(=O)Oc2ccc(Br)cc2)C1 (centres undefined)	0	-15	-0.1	0.61	i	-6.3	0.2	-22	-3	3.6
14	O=C(CCCc1nc2ccccc2s1)N1CCN(c2ccccc2)CC1	1	-1	3.0	0.68	i	-11	-0.5	-11	-15	-3.3
15	CCCCOc1ccc(C(C)NC(=O)CCS(=O)(=O)Cc2ccc(Cl)cc2)cc1 (centres undefined)	1	-22	x	0.74	x	x	0.3	x	x	3.5
16	COc1ccc(CNC(=O)C2CC(C)=CCC2C(=O)O)cc1 (centres undefined)	2	-5	2.0	0.65	i	-2.0	0.9	9	8	3.6
17	O=C1CC(=O)N(Cc2ccco2)C(=S)N1	x	4	x	0.73	x	x	1.0	x	x	5.7
18	CCCCS(=O)(=O)N1CCN(S(=O)(=O)c2cccs2)CC1	-5	-6	-0.3	0.7	i	-2.1	0.1	5	11	0.0
19	C/C(=N\N1CCN(c2ccc(Cl)cc2)CC1)c1cccc([N+](=O)[O-])c1	6	10	1.2	x	i	8.7	0.5	9	12	x
20	CN(C)c1ccc(C(=S)N2CCN(c3ccc([N+](=O)[O-])cc3)CC2)cc1	14	7	5.6	0.73	i	-2.2	-0.2	7	4	11

No.	smiles	Beta apoptosis	T cruzi repl	MLL AF4-AF9 inh	E coli growth	FGF22 binding	rRNA inh HTS RFP	A1 inh	rRNA inh HTS	rRNA inh HTS OD600	UCH37 inh
21	Cc1ccc(N(CC(=O)NC2CCCC2)C(=O)CCC(=O)Nc2nccs2)cc1C	4	0	1.3	0.7	i	-2.7	-0.4	6	3	-2.2
22	O=C(c1cnc(Cl)c(Cl)c1)N1CCC(Cc2ccccc2)CC1	-4	-5	-1.7	0.72	i	-4.4	-0.2	-29	-38	3.3
23	Nc1ccc(Nc2ccc([N+](=O)[O-])cc2[N+](=O)[O-])cc1	102*	19	27*	0.71	i	1.1	-0.3	3	-5	13
24	CCOc1ccc(NC(=O)CC2C(=O)NCCN2C(=O)Nc2ccccc2)cc1 (centres undefined)	x	14	2.6	x	i	-3.1	0.1	0	-1	x
25	COc1ccc(NC(=O)C(C/C=C(/C)Cl)C(C)=O)cc1 (centres undefined)	-1	8	x	0.65	x	x	0.6	x	x	1.9
26	CCOCC(O)CSCc1ccc(Cl)cc1 (centres undefined)	-3	-15	x	0.71	x	-3.6	-1.0	0	4	3.4
27	O=C(O)c1cc(-c2cccs2)nc2ccc(Br)cc12	1	-12	-3.3	x	i	-1.4	-0.1	4	-2	x
28	Cc1nn(Cc2ccc(Cl)cc2)c(C)c1NC(=O)c1cc(-c2ccc3c(c2)OCO3)on1	25	56*	x	0.69	x	x	2.2	x	x	1.1
29	CCC(C)N1C(=O)/C(=C/c2c(NCCCOC(C)C)nc3c(C)cccn3c2=O)SC1=S (centres undefined)	31	x	x	0.78	x	17	-0.2	34	10	9.0
30	Cc1ccc(-n2nc3c(=O)n(CC(=O)NC(C)CCc4ccccc4)nc(C)c3c2C)cc1 (centres undefined)	9	6	x	0.72	x	x	0.2	x	x	-1.5
31	CCOc1ccc(N2C(=O)CC(C(C)c3ccccc3)C2=O)cc1 (centres undefined)	x	-8	-4.9	0.67	i	-0.6	-0.4	6	5	3.9
32	COc1cc(NC(=O)Nn2cnnc2)cc(OC)c1OC	2	-27	0.8	0.65	i	1.6	-0.3	9	12	2.5
33	COc1cccc(N2CCN(C(=O)c3cn(Cc4ccccc4)nc3-c3cccnc3)CC2)c1	3	x	5.8	0.7	i	2.4	0.4	-2	-5	-0.1
34	COc1ccc(NC(=O)N(C)C[C@H]2Oc3ccc(NC(=O)CCN4CCOCC4)cc3C(=O)N([C@H](C)CO)C[C@@H]2C)cc1	-6	x	-1.0&-0.9	0.73	i	-3.8&-8.8	-0.2	1&2	3&7	-0.2
35	CCN1CCN(Cc2ccc(OCc3ccccc3)cc2)CC1	-6	34	x	0.74	x	x	-0.6	x	x	2.5
36	Cc1[nH]c2ccccc2c1C1=CN2CCS(=O)(=O)N=C2S1	x	0	x	0.71	x	x	0.6	x	x	4.1
37	CCc1cccc2c(C=C(C#N)C#N)cn(CC(=O)N3CCCCC3)c12	-3	-15	-14	0.68	i	0.5	0.1	8	-5	-16
38	COc1ccc(CCNC(=O)COc2cc(O)c3c(c2)OC(C)(C)CC3=O)cc1OC	-2	19	-0.7	0.71	i	x	-0.2	x	x	0.7
39	O=C(NN=C1CCCCCC1)c1ccc(Cl)s1	-7	19	-0.2	0.67	i	4.6	0.4	19	13	6.5
40	COc1cccc(/C=N/NC(=O)c2ccoc2C)c1O	86*	9	0.2	x	i	2.6	-7.7	5	1	x

# Some entries already given with just Beta apoptosis and UCH37 inh:
cpd	molecule	Beta apoptosis	UCH37 inh
39	O=C(NN=C1CCCCCC1)c1ccc(Cl)s1	-7	6.5
26	CCOCC(O)CSCc1ccc(Cl)cc1 (centres undefined)	-3	3.4

# The list continues:
No.	smiles	Beta apoptosis	T cruzi repl	MLL AF4-AF9 inh	E coli growth	FGF22 binding	rRNA inh HTS RFP	A1 inh	rRNA inh HTS	rRNA inh HTS OD600	UCH37 inh
41	CCOc1ccccc1NC(=O)n1ncc2c(C)cccc21	11	0	3.9	0.7	i	-0.7	0.3	3	-5	1.1
42	COc1ccc(C)cc1NC(=O)C(=O)c1cn(CC(=O)N2CCCC2)c2ccccc12	7	0	5.0	0.74	i	4.5	-0.8	-3	2	4.7
43	C/C(=N\NC(=O)CO/N=C(\C)c1cccs1)c1ccc(N)cc1	1	4	1.6	x	i	-2.9	0.8	0	-5	x
44	Cc1cccc(N(C(=O)c2snc(C(N)=O)c2N)C(C(=O)NC2CCCC2)c2ccco2)c1 (centres undefined)	x	5	0.4	0.66	i	2.0	x	0	-9	-33
45	Cc1ccc(CNC(=O)CCS(=O)(=O)c2cc3c(cc2C)NC(=O)CO3)cc1	-1	4	-17	0.66	i	4.7	0.4	2	11	1.2
46	c1cncc(Nc2nc(-c3ccncc3)cs2)c1	-35	26	x	0.59	x	x	1.2	x	x	-0.2
47	CC1C=CCC2C(=O)N(c3cccc(C(=O)NCc4ccccc4)c3)C(=O)C12 (centres undefined)	0	17	1.5	0.65	i	0.8	0.4	-11	-11	2.1
48	O=C(O)c1cccc(N/N=C/c2ccc(-c3ccccc3)cc2)c1	x	4	3.1	x	i	-0.4	x	2	1	x
49	O=C(c1cnn(C(=O)COc2ccc(Cl)cc2)c1)c1ccccc1O	-1	-2	u	0.67	i	-12	0.5	7	3	-18
50	O=C1c2ccccc2C2(c3ccccc3)NCCN12 (centres undefined)	-1	-2	-1.9	0.67	x	x	0.4	x	x	-0.3
51	Cc1cccc(CN(C)CCc2ccccn2)c1	-5	61*	x	0.75	x	x	0.7	x	x	0.7
52	CCn1c(SCC(=O)NNC(=S)Nc2ccc(C)cc2)nnc1-c1ccc(Cl)cc1	8	2	x	0.7	x	x	-0.1	x	x	2.4
53	COC(=O)c1ccccc1NC(=O)CSc1nc(N)cc(=O)[nH]1	2	11	-4.2	0.69	i	-12	-0.5	1	-5	4.6
54	CC(C)(C)N1C(=O)[C@H]2[C@@H](c3ccc(Br)cc3)N3C(=O)N(c4cccc(F)c4)C(=O)[C@@]3(Cc3ccccc3)[C@H]2C1=O	8	-6	0.6	x	i	-3.3	0.6	-2	0	1.6
55	O=C(Nc1nc(-c2cc(F)ccc2F)cs1)c1cccc(N2C(=O)CCC2=O)c1	0	-3	-6.4	0.65	i	-2.6	0.1	-15	-29	-0.5
56	COc1ccc(CN2C(=O)c3cccnc3C2=O)cc1S(=O)(=O)N1CCCCC1	-2	-8	1.6	0.68	i	-4.1	0.8	3	9	0.3
57	CS(=O)(=O)N1CCC(C(=O)Nc2ccccc2F)CC1	-12	-6	x	0.66	x	x	0.4	x	x	2.7
58	CC(=O)NC(Cc1cccc(C)c1)C(=O)NC1CCN(c2ncccc2[N+](=O)[O-])CC1 (centres undefined)	4	-2	-15	0.68	i	-3.6	0.3	9	3	7.4
59	CC1(NC(=O)Cc2c(Cl)cccc2Cl)CCS(=O)(=O)C1 (centres undefined)	0	x	-0.4	0.69	i	-0.5	-0.6	16	19	-1.6
